TRPV1 potentiator: potentiators of human vanilloid receptor 1 (TRPV1); potentiation, % at 8.33 µM; Q8NER1; actives 0.02% (n = 320,000); TRPV1-expressing cells, Fluo-8 calcium influx, capsaicin EC20 potentiation; host cell line not named in the record; control for the full effect not named in the record; active means potentiation above 80%; inconclusive means 30% to 80%; inactive means below 30%; also: 0% is about no effect
Target sequence (Q8NER1 whole entry, looked up): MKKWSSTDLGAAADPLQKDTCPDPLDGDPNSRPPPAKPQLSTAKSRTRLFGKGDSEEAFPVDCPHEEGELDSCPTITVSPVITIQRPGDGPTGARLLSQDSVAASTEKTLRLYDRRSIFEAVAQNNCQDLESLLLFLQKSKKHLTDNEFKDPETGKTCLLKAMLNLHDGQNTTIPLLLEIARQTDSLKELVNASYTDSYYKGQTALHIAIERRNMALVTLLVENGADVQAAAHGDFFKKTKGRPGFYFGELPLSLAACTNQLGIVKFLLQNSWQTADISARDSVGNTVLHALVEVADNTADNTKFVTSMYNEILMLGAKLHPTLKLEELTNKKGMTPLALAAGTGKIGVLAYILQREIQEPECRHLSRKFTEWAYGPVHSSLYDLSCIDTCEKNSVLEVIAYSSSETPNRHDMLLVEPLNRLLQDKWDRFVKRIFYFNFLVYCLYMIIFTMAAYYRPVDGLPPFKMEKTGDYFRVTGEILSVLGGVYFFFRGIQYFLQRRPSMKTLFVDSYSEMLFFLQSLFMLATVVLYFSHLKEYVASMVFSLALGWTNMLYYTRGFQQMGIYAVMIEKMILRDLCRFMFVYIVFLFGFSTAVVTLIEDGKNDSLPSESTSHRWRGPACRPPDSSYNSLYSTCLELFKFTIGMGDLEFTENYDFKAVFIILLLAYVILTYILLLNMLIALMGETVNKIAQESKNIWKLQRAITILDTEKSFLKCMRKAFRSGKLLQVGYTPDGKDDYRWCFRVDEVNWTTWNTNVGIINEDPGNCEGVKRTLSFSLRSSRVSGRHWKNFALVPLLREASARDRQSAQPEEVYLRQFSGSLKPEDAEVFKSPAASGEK
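Fluo-8 calcium influx in TRPV1-expressing cells, kinetic read (ex 480/em 520 nm). Compound added and read 3 min for agonist activity, followed by capsaicin at EC20 final and 2 min further read for enhancement.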
ClpP mod: qHTS Assay for Activators of ClpP | purified B. subtilis ClpP, FRET peptide cleavage, 20 min | ATP-dependent Clp protease proteolytic subunit (Bacillus subtilis (strain 168)), P80244 | Potency, µM (highest dose often 57.5 µM), without a hit: at the highest dose activity change, negative = active | actives 1.9% (n = 340,000); active = well fitted falling curve with a large enough effect; inconclusive = small, poorly fitted or top-dose-only effect; inactive = no such curve, though single readings can be large or run the other way; also: potency is read from the fitted curve at half-maximal effect; the source files actives as falling curves though it sought activators and does not explain the sign; nearly all actives have a fitted effect of over 65% in size; many hits overshoot -100%
Target sequence (P80244 whole entry, looked up): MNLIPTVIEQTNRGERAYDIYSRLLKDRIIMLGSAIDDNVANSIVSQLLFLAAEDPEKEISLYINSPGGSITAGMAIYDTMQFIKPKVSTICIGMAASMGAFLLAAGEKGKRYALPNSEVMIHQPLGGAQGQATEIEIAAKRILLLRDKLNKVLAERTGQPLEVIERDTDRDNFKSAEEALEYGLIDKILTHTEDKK
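ClpP 10 microg/mL final, pH 8 Tris/KCl buffer with BSA, glycerol, Tween-20; compound pinned in; FRET-FV substrate; RT 20 min; Ex320/Em430; ΔFRET vs ADEP 5.8 microM, DMSO, no enzyme.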
PINK1 modulator: changes PINK1 expression | PINK1 immunofluorescence, high-content cytometry, 24 h | Potency, µM (series often up to 76.6 µM), inactives show top-dose activation (PINK1 increase), most hits filed as activators | actives 0.2% (n = 410,000) | AID 624263; active = well fitted activation curve with a large enough effect; inconclusive = small, poorly fitted or top-dose-only effect; inactive = flat fitted curve, though single readings scatter; cell line not stated here;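 also: potency is read from the fitted curve at half-maximal effect; % of control where 0% means no effect; nearly all actives have a fitted effect of over 65% in size; a mitochondrial uncoupler was the plate control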
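Decision-based qHTS: stable cells, 24 h exposure to five compound concentrations, CCCP as control. Fixed cells stained for PINK1 plus nuclear, mitochondrial and cell markers, cytometer read.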
TRPML1 ag: agonists of human TRPML1 channel | AID 624414 | actives 0.12% (n = 410,000) | activation, % (no concentration beside the values) | TRPML1-expressing cells, Ca2+ dye fluorescence, FDSS; host cell line not named in the record; reference of the full effect not given here; in the data active = activation above about 50%; inconclusive = about 30% to 50%; inactive = below about 30%; also: 0% is about no effect; the text of the record puts the active cut at 80%
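Cells: TRPML1-DL, 1X Tet inducer, ~16 h at 37 degrees C/5% CO2. Dye: ABD Ca8 no-wash + quencher, 45-90 min RT. Read: 10 s baseline, compound add, 110 s agonist phase; 54-4 EC80 (4uM final), 110 s antagonist phase.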
Menin MLL FP FL: inhibitors of human menin-MLL interaction, wild-type MLL peptide. Fluorescence polarization, fluorescein-MLL peptide displacement from menin. FP activity change, % at 61.4 µM. 290,000 tested, under 10 active; inconclusive = falling polarisation curve, or a change in total fluorescence; inactive = total fluorescence flat and polarisation flat or rising; no compound was filed as active; the % refers to the polarisation; negative = inhibition;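 also: % of control where 0% means no effect; inhibitors lower the polarisation; unlabelled MLL peptide was the positive control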
TRPML1 inh: inhibitors of human TRPML1 channel; actives 0.02% (n = 390,000); Q9GZU1; AID 624415; activity change, negative = inhibition, % (no concentration beside the values); TRPML1-inducible cells, Ca2+ dye fluorescence, FDSS; active compounds read low; inhibition of EC80 agonist-evoked calcium signal; in the data active means activity change below about -50%; inconclusive means about -30% to -50%; inactive means above about -30%;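 also: stimulus is agonist 54-4 at its EC80 concentration; % is scaled to controls: 0 for no effect and ±100 for the full control effect; compound concentration not given in the record; the text of the record puts the active cut at -80%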
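TRPML1-DL cells, Tet-induced overnight (~16 h, 37 °C) at 1,500 cells/well, were loaded with Ca8 no-wash dye plus quencher for 45-90 min at room temperature. Compounds were pinned during FDSS kinetic reading; agonist 54-4 at EC80 (4 uM final) then added.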
Sfp PPTase inh: Sfp phosphopantetheinyl transferase inhibition. Q9F4F7. Biochemical Sfp PPTase activity, qHTS. Potency, µM, for the others: max response, negative = inhibition, actives largely listed as inhibitors. actives 3.5% (n = 310,000). AID 1490; active = well fitted inhibition curve with a large enough effect; inconclusive = small, poorly fitted or top-dose-only effect, or another doubt; inactive = no such curve, though single readings can be large or run the other way;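 also: the enzyme is Sfp with the accession as filed and its product quenches rhodamine fluorescence; potency is read from the fitted curve at half-maximal effect; 0% = enzyme reaction without inhibitor and -100% = no enzyme wells; top concentration of the series not given in the record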
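Buffer: 50 mM Hepes-Na pH 7.6, 10 mM MgCl2, 0.01% Nonidet P-40, 0.01% BSA. Enzyme 15 nM, pre-exposed to compound 15 min; substrates then added and fluorescence change tracked over 30 min.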
Active calls of the source: *; ? = inconclusive; nt = not tested or not shown; & = joins results of further samples; [ ] = remark or other dose.

molecule,TRPV1 potentiator,ClpP mod,PINK1 modulator,TRPML1 ag,Menin MLL FP FL,TRPML1 inh,Sfp PPTase inh
CCN(CC)C(=O)Cn1c(=O)n(CC(=O)N2CCCCC2)c(=O)c2sccc21,4.9,-1.8%,-1.3%,-0.1,nt,7.8,16.4%
Cc1ccc(-n2nc3ccc(NC(=S)NC(=O)/C=C/c4ccco4)cc3n2)cc1,?,1.8%,15.4%,-0.4,nt,14.8,4.7%
CCOc1ccc(NC(=O)CSc2nc(C)c3c(c2C#N)CCCC3)cc1,3.1,-0.9%,-0.3%[38.3 µM],1.1,1.3,-7.9,16.6%
COC(=O)C(=C/C=C/N1CCOCC1)C(=O)OC,8.7,nt,nt,nt,-3.3,nt,12.6%
Cn1c(=O)n(C)c2cc([N+](=O)[O-])c(N3CCN(S(=O)(=O)c4ccc(C(C)(C)C)cc4)CC3)cc21,19.9,0.8%,nt,0.0,0.5,3.0,-0.6%
Cc1ccc(S(=O)(=O)Oc2ccccc2/C=N/NC(N)=S)cc1,?,0.5%,14.0%[38.3 µM],0.2,0.1,2.4,5.1%
Cc1c(N2C(=O)CS/C2=N\N=C\c2ccc(Br)cc2)c(=O)n(-c2ccccc2)n1C,nt,0.1%,-1.7%,1.1,2.1,7.3,6.6%
CC(OC(=O)CCCN=C1NS(=O)(=O)c2ccccc21)C(=O)Nc1ccc(F)c(F)c1F (configuration not stated),-0.2,1.7%,0.7%,7.8,nt,-11.5,nt
CCn1ccnc1CN(C)C(=O)c1ccc2nc(Cc3ccc(OC)cc3)oc2c1,-0.2,1.2%,-1.0%,0.5,6.3,6.2,11.1%
NC(=O)C(c1ccc(Cl)cc1)c1ccc(Sc2ccc(Cl)cc2)nn1 (configuration not stated),-8.9,-2.4%,0.8%,1.5,4.3,-0.9,-10.1%
Cc1ccc(NC(=O)ON=C2CCCC2)cc1,-9.4,-2.6%,13.2%,1.2,0.7,0.0,2.5%
CCn1c(CC(=O)Nc2ccc(C)cc2)nnc1SCC(=O)NCCc1ccccc1,4.7,-2.3%,-4.3%[38.3 µM],-0.5,1.5,-6.2,28.0%
CCN(CC)C(=O)c1sc(NC(=O)c2nc3ncccn3n2)c(C(=O)OC)c1C,nt,?,4.8%,1.0,nt,-19.9,nt
Cc1oc(-c2ccc3c(c2)OCCO3)cc1C(=O)NC(Cc1ccccc1)C(=O)O (configuration not stated),14.9,nt,0.2%,-0.9,0.8,-3.6,22.4µM*
NC1=NC(=O)S/C1=C\c1ccc(O)cc1,1.2,-0.6%,2.8%,0.2,16.6,6.9,5.3%
CC(C)(C)c1ccc(CN(Cc2ccco2)Cc2nnnn2C2CCCC2)cc1,-7.3,-1.3%,?,2.3,9.1,0.4,-9.5%
O=c1[nH]c(SCc2cccc(Cl)c2)nc2[nH]ncc12,7.9,-0.5%,1.5%,1.0,1.5,1.2,21.3%
COc1cc([N+](=O)[O-])ccc1NC(=O)Nc1cccnc1,-5.2,2.2%,1.9%,0.2,-4.4,32.7,10.5%
Cc1ccc(C(=O)OCC(=O)NC2CCCCCC2)c(C)c1,-8.5,nt,3.7%,2.4,nt,1.7,nt
Cc1c(C(=O)Nc2ccc(Cl)cc2)c2ccccn2c1C(=O)c1ccc(F)cc1,9.7,-3.0%,?,0.3,-0.9,-2.9,4.6%
CCN(CC)C(=O)c1cc(Cl)ccn1,-11.9,nt,1.9%,0.0,1.2,12.1,44.7µM*
COc1ccc(CC(C(=O)Nc2ccc(OC)cc2)c2nn[nH]n2)cc1 (configuration not stated),3.1,1.0%,-0.8%,-0.3,-0.3,17.4,-5.4%
CC(Cl)C(=O)Nc1cc(C(F)(F)F)ccc1N1CCOCC1 (configuration not stated),-14.3,nt,0.8%,-0.1,-2.4,-9.5,17.5%
CCC(=O)N/C(N)=N/c1nc2ccccc2o1,-1.4,-1.1%,-1.0%,-0.4,1.3,29.2,8.8%
O=C(NNS(=O)(=O)c1ccccc1)c1ccc(S(=O)(=O)N2CCCCC2)cc1,9.1,-1.8%,-0.1%,0.5,6.9,3.8,2.3%
Cn1c(CCN2CCCCCC2)nc2cc(NC(=O)Nc3ccccc3)ccc21,-12.0,-24.7%,-3.1%,0.8,0.6,-6.4,-8.2%
CCCc1cc(C(=O)N2CCCC(Cc3ccccc3C)(C(=O)OCC)C2)no1 (configuration not stated),-12.8,0.1%,-0.3%,1.4,-0.2,30.2,-1.3%
Cc1ccc(Nc2ccc(C(=O)NCCc3ccccc3)cn2)cc1,2.9,-11.0%,-1.6%,0.1,1.0,-17.1,3.4%
Cc1ccc(Cn2ncn(-c3ccccc3)c2=O)cc1,-21.1,0.7%,2.9%,-1.7,-0.4,-10.8,13.7%
Cc1ccc(NS(=O)(=O)c2cccc(C(=O)NCC(c3cccs3)N(C)C)c2)cc1 (configuration not stated),1.2,nt,-0.8%,3.0,-3.9,-14.0,14.8%
COc1cccc(C2CC(=O)C3=C(C2)Nc2ccccc2N(C(=O)CCC(=O)O)C3c2ccc(F)cc2)c1 (configuration not stated),-5.1,nt,1.1%,0.2,3.9,11.5,14.2%
Cn1nc(NC(=O)C(C)(C)C)c2c(F)cccc21,nt,nt,0.7%,0.1,-0.9,-17.4,5.9%
COC(=O)C1Cc2ccccc2CN1S(=O)(=O)c1ccc(F)cc1 (configuration not stated),-7.2,-0.4%,-1.3%,-0.6,-1.5,9.3,10.1%
Cn1c(-c2sc(=S)n(-c3ccccc3)c2N)nc2ccccc21,0.9,3.1%,?,-0.2,-1.7,2.3,0.4%
O=C(/C=C/c1ccccc1)NC(=S)Nc1ncccn1,-8.4,1.0%,0.9%,-0.6,5.3,3.6,-30.0%
CCC(C)C(NS(=O)(=O)c1ccc(C)cc1)C(=O)O (configuration not stated),11.1,nt,-0.3%,0.5,-5.7,-6.3,6.0%
CN(C(=O)CSc1nnc(-c2ccc3c(c2)OCO3)o1)C1CCS(=O)(=O)C1 (configuration not stated),-2.5,-1.9%,-1.8%,0.9,nt,-3.7,nt
CC1Cc2cc(S(=O)(=O)N3CCN(c4cccc(Cl)c4)CC3)ccc2N1C(=O)C1CC1 (configuration not stated),1.6,-3.8%,0.7%,0.1,-6.2,-1.4,4.8%
COc1ccccc1C(=O)Nc1c(C(=O)N2CCN(C)CC2)oc2ccccc12,5.5,0.6%,1.1%,0.1,nt,-24.6,0.1%
COc1ccc(CCNC(=O)C2CCC(=O)N2S(=O)(=O)c2ccc(C)cc2)cc1 (configuration not stated),14.8,2.2%,-1.2%,1.4,-0.9,-20.9,-6.1%
CCOc1ccc(NC(=O)CSc2nnc(-c3ccco3)n2N)cc1,27.8,-0.9%,-0.7%,0.0,nt,-6.6,13.8%
Cc1cc(C)c2c(-n3cccc3)c(NC(=O)OC(C)C)sc2n1,-6.8,-8.1%,7.6%,-1.0,2.6,7.6,-0.8%
O=[N+]([O-])c1cccnc1NCc1cccs1,-6.0,-0.5%,2.5%,1.1,-2.4,10.9,18.2%
CC(C)(C)n1nc2c(c1NC(=O)c1ccc(Br)cc1)CS(=O)C2 (configuration not stated),nt,0.7%,4.1%,-1.0,5.4,-6.6,-3.2%
COC(=O)c1sccc1NC(=O)c1cc(-c2cc(C)ccc2C)nc2ccccc12,1.0,?,26.7%[38.3 µM],0.1,3.8,-12.5,16.4%
CCCCNC(=O)C(CC)(ONc1ccccc1C(F)(F)F)c1ccccc1OC (configuration not stated),-4.0,2.8%,4.5%,-0.8,nt,-7.5,nt
COc1cc(/C=C2/C(=O)NN(c3ccc(Cl)cc3)C2=O)cc(OC)c1O,20.4,0.2%,0.8%,1.7,?,-1.4,-2.1%
CC(C)CCCN1C(N(C)C)=NC[C@@H]1Cc1ccccc1,-8.7,-1.3%,-0.3%,-0.5,nt,22.0,nt
CC(=O)c1cccc(CN2CCC(CO)(CCCc3ccccc3)CC2)c1,10.2,-0.2%,-1.0%,1.1,7.4,-7.3,-0.2%
Cc1ccc2nc(-c3ccc(Cl)s3)c(Nc3ccc4c(c3)OCCO4)n2c1,nt,?,-2.6%,-0.4,nt,16.1,nt
CCc1cccc(NC(=O)Cn2c(-c3ccccc3)cc(C(C)=O)c2C)c1,-9.9,-0.7%,2.1%,1.5,6.9,12.5,-3.6%
CC1CCCC(C)N1C(=S)NCc1ccco1 (configuration not stated),-3.9,nt,5.6%,0.6,6.8,-11.1,35.5µM*
CCOC(=O)c1ccc(N2C(=O)C3CC=CCC3C2=O)cc1 (configuration not stated),0.0,-1.0%,-0.5%[38.3 µM],0.0,0.7,2.3,3.9%
O=C(NCc1ccccc1)c1onc(CSc2ccccn2)c1C(=O)NCc1ccccc1,15.2,-1.6%,-1.7%,-0.8,0.0,-4.3,12.7%
CC1(C)CC(=O)C2=C(C1)NCN(CCCN1CCOCC1)C2,7.4,1.5%,-0.9%,-0.2,2.5,0.7,7.3%
COc1ccc(C)c(NC(=O)C2CC(=O)NC3=C2C(=O)CCC3)c1 (configuration not stated),8.8,nt,1.4%,0.5,4.1,-5.5,11.9%
O=C(O)Cn1nnc(-c2ccc(OCc3ccccc3)cc2)n1,nt,2.1%,-2.6%,2.9,nt,-3.2,nt
COc1ccc(Br)cc1CNC(=O)CCCn1c(=O)c2cccn2c2cccnc21,nt,-9.0%,0.6%,2.9,nt,7.3,nt
Cc1ccccc1CN1C(=O)c2ccccc2Sc2ccc(C(=O)NC3CCCC3)cc21,nt,-1.8%,-0.1%,-0.3,nt,34.6,nt
O=C(COC(=O)c1cnc(Cl)c(Cl)c1)Nc1ccc(S(=O)(=O)N2CCCC2)cc1,-2.1,nt,6.2%,0.5,3.3,14.2,-7.7%

(further entries)
molecule,TRPV1 potentiator,ClpP mod,PINK1 modulator,TRPML1 ag,Menin MLL FP FL,TRPML1 inh,Sfp PPTase inh
COc1ccc(C2=NN(CC(=O)NCc3ccccc3Cl)C(=O)CC2)cc1,nt,0.6%,1.4%,0.5,nt,13.8,nt
[O-][n+]1ccccc1SCc1ccccc1,-17.0,0.2%,0.8%,-0.7,nt,37.8,nt
Cc1onc(-c2c(Cl)cccc2Cl)c1C(=O)NC1C(=O)N2C1SC(C)(C)C2C(=O)O (configuration not stated),-6.9,nt,0.3%,0.6,-1.9&-2.4,22.0,-1.6%&12.1%
COC(=O)CCCC1=CC2=C(c3ccccc3)C(=O)C(C)(OC(=O)C3CCCC3)C(=O)C2=CN1c1ccccc1 (configuration not stated),-29.2,-2.2%,0.5%,0.0,-0.5[11.7 µM],7.6,-10.4%&8.3%
